# RecA intein inh – inhibitors of M. tuberculosis RecA intein splicing; P9WHJ3; AID 2221; cell-free RecA intein splicing, fluorescence; 0.75% of 290,000 active; inhibition, %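 (about 9 µM by stock and volumes)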; in the data active = inhibition above about 30%; inconclusive = no clear call, values can overlap the other calls;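 note: 0% = vehicle wells and 100% = reference inhibitor control wells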
# Target sequence (P9WHJ3 whole entry, looked up): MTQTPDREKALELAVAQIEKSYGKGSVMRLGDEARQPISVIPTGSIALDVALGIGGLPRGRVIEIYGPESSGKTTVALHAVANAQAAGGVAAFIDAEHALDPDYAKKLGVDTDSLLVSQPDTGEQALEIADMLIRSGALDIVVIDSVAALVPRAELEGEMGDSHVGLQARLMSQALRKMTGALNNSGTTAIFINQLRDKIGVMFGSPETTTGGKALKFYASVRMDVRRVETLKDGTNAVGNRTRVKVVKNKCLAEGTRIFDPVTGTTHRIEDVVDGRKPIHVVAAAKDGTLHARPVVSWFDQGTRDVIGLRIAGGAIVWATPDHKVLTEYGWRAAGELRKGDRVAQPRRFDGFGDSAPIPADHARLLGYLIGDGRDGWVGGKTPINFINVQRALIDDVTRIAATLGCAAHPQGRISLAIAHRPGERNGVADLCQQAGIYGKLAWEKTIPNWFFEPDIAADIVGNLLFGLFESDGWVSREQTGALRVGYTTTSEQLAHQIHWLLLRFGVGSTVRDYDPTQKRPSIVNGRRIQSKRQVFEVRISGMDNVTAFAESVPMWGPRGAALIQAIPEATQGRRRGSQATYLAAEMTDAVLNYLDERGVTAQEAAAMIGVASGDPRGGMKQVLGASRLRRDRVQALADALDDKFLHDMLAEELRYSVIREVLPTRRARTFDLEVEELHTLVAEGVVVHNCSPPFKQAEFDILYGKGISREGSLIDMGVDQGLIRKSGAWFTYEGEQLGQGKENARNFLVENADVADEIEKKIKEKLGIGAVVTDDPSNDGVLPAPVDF
# Mtb bLac sens – beta-lactam sensitization of Mtb H37Rv. inhibition, % at 25 µM. 0.27% of 330,000 active. M. tuberculosis H37Rv growth with meropenem, percent inhibition; hits of this screen are not shown here;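 active = about 74% or more and at least 40 points above the plate without the antibiotic, then above 30% in a dose series; inconclusive = first-round hits that could not be retested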;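 note: growth measured after seven days incubation then overnight dye step; 0% = bacteria only wells and 100% = bacteria with antibiotic; twin plates without the antibiotic show which effects depend on it; some results filed as inactive read as strong as hits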
# Mtb H37Rv – M. tuberculosis H37Rv growth inhibitors, H37Rv strain (AID 1626); M. tuberculosis H37Rv growth inhibition; higher % means a stronger effect; inhibition, % at 10 µM, or IC50 in µM where a hit was titrated; 0.95% of 220,000 active;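 active = confirmed in a dose series; inconclusive = inhibition above 80% but not taken into the dose series; inactive = below 80% or under 30% at every dose of the series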;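 note: bacteria incubated seven days before Alamar blue readout; 0% = bacteria only wells and 100% = bacteria with antibiotic wells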
# YopH inh – blocks Yersinia enterocolitica YopH tyrosine phosphatase; fluorescence Ex485/Em525; inhibition, %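 (about 10 µM by stock and volumes)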; 0.16% of 140,000 active; AID 898;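 active = inhibition of 50% or more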;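 note: controls were vehicle for no effect and minimum signal wells for full effect; inactives centre near -20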
# Arbovirus anti – blocks arbovirus infection; AID 1251; inhibition, % at 10 µM; arbovirus infection cell-based antiviral screen; 0.37% of 200,000 active;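 active = inhibition from about 30%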;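 note: bluetongue infection of BSR cells; cell survival read as ATP light after 72 h; 0% = infected wells without compound and 100% = uninfected wells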
# Arbovirus anti repeat – second read-out of Arbovirus anti, no call of its own (marks repeat the call); inhibition, %; measured here: 10K subset replicate screen; many hits read low in the repeat;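 first of two repeat runs on a subset; 0% = infected and 100% = uninfected wells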
# * hit, by the source's call; ? = inconclusive; . = no result given. A portion of the library; count on the stated rates, not on these rows.
# A first look (15 entries):
SMILES,RecA intein inh,Mtb bLac sens,Mtb H37Rv,YopH inh,Arbovirus anti,others
C=CCNc1nc(Nc2ccc(-c3nc4ccccc4o3)cc2)nc(N2CCOCC2)n1,-1.7,7.3,11.7%,-18.8,12.2,
CCOc1ccccc1N(CC(=O)Nc1ccc(OC)cc1OC)S(=O)(=O)c1ccccc1,-0.1,10.6,.,.,.,
Cc1[nH]n(S(=O)(=O)c2ccccc2)c(=O)c1N=Nc1cccc(Cl)c1,1.5,7.9,.,.,.,
Clc1ccc(OCc2nnc(SCCN3CCCCC3)n2Cc2ccco2)cc1,1.0,-2.6,2.2%,-13.7,-13.9,
COc1ccccc1OCCOc1ccc(/C=C2/C(=N)N3OC(C)=CC3=NC2=O)cc1OC,-5.6,5.2,-7.7%,-27.8,12.4,
COc1ccc(/C=N/NC(=O)c2ccc(CN3C(=O)c4cccc5cccc3c45)cc2)cc1O,-14.5,-5.5,5.8%,.,-20.0,
O=C1c2cccc3c(N4CCCCC4)ccc(c23)C(=O)N1CCO,-29.0,-1.1,5.6%,-25.0,-11.9,
COc1ccc(C2C(C(=O)N3CCN(C)CC3)c3cc(OC)c(OC)cc3C(=O)N2C)cc1 (centres undefined),-1.8,-1.1,-5.6%,.,-4.9,
Cc1cc(C)nc(NC(=S)NC(=O)c2ccccc2F)n1,-1.2,-2.2,.,.,.,
O=C(CSc1ccc(-c2cccnc2)nn1)N1CCCc2ccccc21,2.6,-1.7,41.2%,.,-3.2,
O=C(CC(=O)NCc1ccc(Cl)cc1)NCc1ccc(Cl)cc1,-0.7,-3.3,.,.,.,
COc1cccc(OC)c1C(=O)Nc1nc(-c2ccccc2)cs1,6.2,-19.2,.,.,.,
Cc1cccc(NC(=O)CSCC(=O)NCc2ccco2)c1,1.0,-19.8,.,.,.,
COc1ccc(C(CC(=O)O)N2Cc3ccccc3C2=O)cc1 (centres undefined),0.6,-3.4,.,.,.,
CC1(C(=O)O)CCC(C(=O)NCCc2ccccc2)C1(C)C (centres undefined),-2.4,5.0,0.0%,-15.0,2.0,

# The listing, from the first entry:
SMILES,RecA intein inh,Mtb bLac sens,Mtb H37Rv,YopH inh,Arbovirus anti,others
C=CCNc1nc(Nc2ccc(-c3nc4ccccc4o3)cc2)nc(N2CCOCC2)n1,-1.7,7.3,11.7%,-18.8,12.2,
CCOc1ccccc1N(CC(=O)Nc1ccc(OC)cc1OC)S(=O)(=O)c1ccccc1,-0.1,10.6,.,.,.,
Cc1[nH]n(S(=O)(=O)c2ccccc2)c(=O)c1N=Nc1cccc(Cl)c1,1.5,7.9,.,.,.,
Clc1ccc(OCc2nnc(SCCN3CCCCC3)n2Cc2ccco2)cc1,1.0,-2.6,2.2%,-13.7,-13.9,
COc1ccccc1OCCOc1ccc(/C=C2/C(=N)N3OC(C)=CC3=NC2=O)cc1OC,-5.6,5.2,-7.7%,-27.8,12.4,
COc1ccc(/C=N/NC(=O)c2ccc(CN3C(=O)c4cccc5cccc3c45)cc2)cc1O,-14.5,-5.5,5.8%,.,-20.0,
O=C1c2cccc3c(N4CCCCC4)ccc(c23)C(=O)N1CCO,-29.0,-1.1,5.6%,-25.0,-11.9,
COc1ccc(C2C(C(=O)N3CCN(C)CC3)c3cc(OC)c(OC)cc3C(=O)N2C)cc1 (centres undefined),-1.8,-1.1,-5.6%,.,-4.9,
Cc1cc(C)nc(NC(=S)NC(=O)c2ccccc2F)n1,-1.2,-2.2,.,.,.,
O=C(CSc1ccc(-c2cccnc2)nn1)N1CCCc2ccccc21,2.6,-1.7,41.2%,.,-3.2,
O=C(CC(=O)NCc1ccc(Cl)cc1)NCc1ccc(Cl)cc1,-0.7,-3.3,.,.,.,
COc1cccc(OC)c1C(=O)Nc1nc(-c2ccccc2)cs1,6.2,-19.2,.,.,.,
Cc1cccc(NC(=O)CSCC(=O)NCc2ccco2)c1,1.0,-19.8,.,.,.,
COc1ccc(C(CC(=O)O)N2Cc3ccccc3C2=O)cc1 (centres undefined),0.6,-3.4,.,.,.,
CC1(C(=O)O)CCC(C(=O)NCCc2ccccc2)C1(C)C (centres undefined),-2.4,5.0,0.0%,-15.0,2.0,
Cc1nn(CC2CC2)c(=O)n1-c1ccc(Oc2ccccc2)cc1,-0.7,-4.0,-2.4%,.,11.0,
CC1CC(C)CN(CC(=O)c2c[nH]c3ccccc23)C1 (centres undefined),0.9,-7.3,.,.,.,
CCCSCCCNC(=O)Cn1c(=O)c2cccn2c2ccccc21,0.8,-2.2,.,.,.,
O=C(Nc1ccc(Cl)cc1)Nc1nccs1,-4.2,8.1,-1.9%,1.2,-1.3,
COc1cccc(C(=O)COc2ccc3ccc(=O)oc3c2)c1,-0.3,-1.6,2.5%,.,-1.1,
CC1=C/C(=N\NC(=O)c2cccs2)CC(C)(C)C1,-5.0,80.5,?,.,-5.1,
Cn1c(=O)n(C)c2cc(N3CCOCC3)c(NC(=O)c3cccc(Cl)c3)cc21,1.8,6.2,.,.,.,
CCn1c2ccccc2c2nnc(SCC(=O)NCc3cccs3)nc21,-1.7,-8.0,-0.4%,9.6,-0.5,
Cc1nc2c(-c3ccccc3)c(C)nn2c(C)c1CCC(=O)NCc1ccco1,.,-5.3,4.5%,-32.0,-0.5,Arbovirus anti repeat=0.0
Cc1nonc1NC(=O)CSc1cn[nH]n1,0.0,4.7,.,.,.,
CCOC(=O)c1cc2sccc2n1CC(=O)N1CCCc2ccccc21,4.0,0.9,14.3%,-38.5,-8.5,
CCn1c(CNC(=O)c2ccc(OC)cc2)nnc1SCC(=O)c1ccccc1,-9.5,-11.2,-2.7%,-36.8,2.9,
CCCOc1ccc(C(=O)NNC(=S)NC(=O)c2ccco2)cc1,3.6,96.8,?,.,.,
COc1ccc(NS(=O)(=O)c2ccc(Br)cc2)cn1,1.1,1.5,.,.,.,
COc1ccc(C2SCC(=O)Nc3c2c(=O)[nH]n3C2CCCCCC2)cc1OC (centres undefined),-0.9,?,-0.7%,-16.6,0.3,Arbovirus anti repeat=0.2
COc1ccc(CCNC(=O)CSc2nc3[nH]ncc3c(=O)n2-c2ccc(Cl)cc2Cl)cc1OC,1.4,0.6,6.4%,.,-4.7,
Cc1cc(C(=O)COC(=O)c2ccc3c(c2)NC(=O)CS3)c(C)n1CC1CCCO1 (centres undefined),3.7,-0.5,-2.6%,-16.3,-0.1,
COC(=O)c1ccc(NN=Nc2ccc(C)cc2)cc1,2.8,3.7,?,-3.7,-3.0,
CCN(CC)c1ccc(S(=O)(=O)N2CCOCC2)cc1NC(=O)CN1C(=O)NC2(CCC(C)CC2)C1=O (centres undefined),1.9,-0.1,.,.,.,
CCN1CCN(CCC(=O)Nc2ccccc2C)CC1,0.3,4.3,.,.,.,
Cc1ccc(OCC(=O)NC(C)c2ccccc2)c([N+](=O)[O-])n1 (centres undefined),-0.1,2.9,3.4%,.,1.8,
CC(C)(C)C1CCC(C(=O)OCC(=O)N2CCOCC2)CC1 (centres undefined),-2.1,4.5,1.9%,-4.1,8.2,
COc1ccc(OC)c(CCNC(=O)CS(=O)(=O)Cc2nc(-c3ccccc3Cl)oc2C)c1,-0.8,-1.8,.,.,.,
CC(=O)Nc1ccc(NC(=O)c2ccccc2C)cc1,0.1,5.6,4.4%,-30.3,1.0,
CN(c1ccc(C(=O)N2CCOCC2)cc1)S(C)(=O)=O,0.8,11.9,-5.6%,-19.7,1.1,
CC1(C)S/C(=N/N=C/c2cccs2)NC1=O,0.6,54.6,3.8%,-38.3,-2.2,
O=C(NCC1CCCO1)C1CCN(C2CCN(Cc3cccs3)CC2)CC1 (centres undefined),-1.3,0.1,-13.3%,.,.,
Cc1ccc(C)c(NC(=O)c2cc(-c3cc(C)c(C)cc3O)n[nH]2)c1,-0.2,1.6,.,.,.,
COc1cccc(N2C(=O)CC(N3CCN(CCN=CC4=C(O)CC(C)(C)CC4=O)CC3)C2=O)c1 (centres undefined),3.2,-1.7,-2.7%,.,-5.9,
O=S(=O)(NCCc1ccccc1)c1ccc(Cl)nc1,-2.3,7.7,5.2%,-27.8,-1.2,
O=C(CN1CCCC1)Nc1sc2c(c1C(=O)Nc1ccccc1)CCCC2,-1.4,1.0,.,.,.,
O=C(Nc1cccc(Cl)c1Cl)c1ccc(-c2ccccc2)cc1,2.4,1.4,.,-34.8,-6.1,
O=C(COC(=O)c1ccccc1NC(=O)c1ccco1)Nc1ncc(Cl)cc1Cl,3.5,8.8,0.9%,-7.4,8.8,
COc1ccc(Nc2nc3cc(C)ccc3cc2C#N)cc1,-4.5,7.3,.,.,.,
O=C(c1cc2ccccc2cc1O)N1CCN(c2cccc(Cl)c2)CC1,-6.3,-11.6,.,.,.,
CS(=O)(=O)N(CC(=O)N1CCN(Cc2ccccc2)CC1)c1cccc([N+](=O)[O-])c1,-2.1,-11.1,.,.,.,
C(=N\Nc1nncc2ccccc12)/c1ccccc1,.,-8.5,-5.0%,.,.,
CCOc1cccc(N2C(=O)CC(=O)NC2=O)c1,0.3,-2.6,-9.1%,-5.8,8.0,
COc1ccc(-n2c(C)cc(C(=O)CSc3nnc(-c4cccs4)o3)c2C)cc1,.,4.9,6.8%,-23.9,29.6,
COc1ccc(N2C(=O)CN=C2Nc2nc(C)cc(C)n2)cc1OC,.,.,-6.5%,-13.5,-8.9,
O=C1CN(C(=O)c2ccccc2)C(c2ccccc2)c2cc(F)ccc2N1 (centres undefined),6.4,-1.1,.,.,.,
O=C(NCCN1CCCC1)C1COc2ccccc2O1 (centres undefined),-1.3,-0.6,-4.8%,-22.2,2.0,
CCOCCCNS(=O)(=O)c1ccc2c(c1)CCN2C(=O)CC,0.0,-10.7,-3.7%,-18.4,1.3,
COc1cccc(C(=O)Nc2ccc(NC(=O)C3CCCCC3C(=O)O)cc2)c1 (centres undefined),-1.0,-3.0,.,.,.,
CC1CCN(Cc2c(C(=O)N/N=C/c3cccc(Cl)c3)nnn2-c2nonc2N)CC1,1.5,12.4,.,.,.,
# Additional records
SMILES,RecA intein inh,Mtb bLac sens,Mtb H37Rv,YopH inh,Arbovirus anti,others
O=C(COC(=O)CCCN1C(=O)c2cccc3cccc(c23)C1=O)Nc1ccc(Cl)cc1,-2.3,48.8,4.7%,-33.0,3.2,
COc1ccccc1-c1cn(S(=O)(=O)c2ccc(F)cc2)nc1N,11.5,0.3,-0.4%,5.2,8.1,
C=CCNc1sc(C(=O)C(C)(C)C)c(N)c1C#N,4.9,-4.7,1.7%,0.5,-0.9,
CCN1/C(=C/c2cc[n+](CCCS(=O)(=O)[O-])c3ccccc23)Sc2ccccc21,1.6,-5.1,2.1%,.,2.9,
COC(=O)c1ccccc1NC(=O)N1CCN(c2ccc(F)cc2)CC1,8.2,0.6,5.4%,.,7.4,
CCOc1cc(/C=N/NC(=O)c2cccc(S(=O)(=O)N3CCCC3)c2)ccc1OCC(=O)N(C)C,-1.1,-14.4,.,.,.,
CCCc1nc2ccccc2c(C(=O)OCC(=O)Nc2ccc(S(=O)(=O)N3CCOCC3)cc2)c1CC,4.6,99.8,34.3%,-7.2,-28.1,
COC(=O)c1ccc(CNC(=O)c2c3c(nc4ccccc24)CCN(Cc2ccccc2)C3)cc1,-0.4,-12.8,12.0%,-23.7,-5.5,
COc1ccc(C2=NN(C(=O)CSC3=NN4CCCC(=O)N=C4S3)C(c3cccc(OC)c3OC)C2)cc1 (centres undefined),1.8,-8.6,0.9%,.,15.7,
CCSc1nnc(NC(=O)c2csc3c2CCC(C)C3)s1 (centres undefined),-2.4,-1.7,0.8%,-21.9,-6.6,
Cc1nn(C)cc1-c1csc(N)n1,-3.5,-13.9,7.0%,.,3.6,
CCn1cc(CNC(=O)c2cc(COc3ccc(F)cc3F)on2)cn1,-0.5,-4.7,-0.5%,.,0.4,
Cc1ccc(N(C(=O)NC2CCCCC2)C2=NCCCCC2)cc1,1.8,0.4,0.6%,13.1,0.0,
